MLL AF4-AF9 inh: inhibitors of human MLL-AF4/AF9 interaction. P42568. AlphaScreen, biotin-AF4 peptide binding to FLAG-AF9. AID 651704. inhibition, % at 10 µM. 350,000 compounds, 0.47% hits;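 active = every replicate reaching a set inhibition limit, whatever the replicate mean, cut at about 25% in these data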;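 also: 0% = plate neutral control median and 100% = total signal loss; the record names both 10 and 1 µM as test concentration; the first replicate is given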
Target sequence (P42568 whole entry, looked up): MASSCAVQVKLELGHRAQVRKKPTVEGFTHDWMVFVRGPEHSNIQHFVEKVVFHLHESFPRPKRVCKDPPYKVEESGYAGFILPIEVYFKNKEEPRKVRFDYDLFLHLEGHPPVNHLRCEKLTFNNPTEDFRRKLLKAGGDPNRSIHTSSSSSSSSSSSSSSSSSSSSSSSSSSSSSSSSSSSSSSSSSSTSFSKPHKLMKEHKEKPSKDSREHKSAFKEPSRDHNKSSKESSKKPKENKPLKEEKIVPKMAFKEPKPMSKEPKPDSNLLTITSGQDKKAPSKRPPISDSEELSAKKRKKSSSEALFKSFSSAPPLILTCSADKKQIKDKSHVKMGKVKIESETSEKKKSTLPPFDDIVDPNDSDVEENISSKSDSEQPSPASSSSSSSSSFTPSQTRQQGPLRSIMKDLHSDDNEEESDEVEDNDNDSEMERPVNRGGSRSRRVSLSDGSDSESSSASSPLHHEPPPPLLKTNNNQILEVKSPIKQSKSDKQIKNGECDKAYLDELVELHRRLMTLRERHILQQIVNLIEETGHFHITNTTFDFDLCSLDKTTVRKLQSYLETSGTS
FGF22 binding: FGF22 (human) thermal shift binding; Q9HCT0; recombinant FGF22 thermal shift, SYPRO orange fluorescence; percent of sucrose octasulfate shift, DMSO zero; calls only at 9.99 µM; 340,000 compounds, 1.5% hits; AID 651658;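 active = melting point raised past a set limit in the mean and every replicate; three in four hits are not shown here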
Target sequence (Q9HCT0 whole entry, looked up): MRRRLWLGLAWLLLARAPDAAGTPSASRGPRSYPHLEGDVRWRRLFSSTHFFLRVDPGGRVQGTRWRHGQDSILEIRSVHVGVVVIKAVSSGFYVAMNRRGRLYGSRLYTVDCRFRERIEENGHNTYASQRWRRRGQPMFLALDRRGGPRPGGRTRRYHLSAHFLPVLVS
rRNA inh HTS: inhibits bacterial ribosomal RNA function over humanized ribosomes | 350,000 compounds, 1.6% hits | E. coli WT GFP vs humanized-ribosome RFP mutants, fluorescence, 24 h; hits give low values; DMSO median 0, no signal -100 | GFP signal change (wild-type ribosome), % (concentration not given with the values);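 active = significant combined selectivity score with lowered wild-type GFP, culture density cut under 30%, mutant RFP and density less affected; inactive = any of these conditions unmet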; also: one replicate is shown; some compounds called inactive have numbers as strong as hits
Vif TR-FRET: inhibitors of Vif binding to APOBEC3G peptide, primary screen, biochemical, TR-FRET, GST-Vif 1-94, biotin-A3G peptide, dose response retest (AID 1117319); TR-FRET GST-Vif / biotin-A3G peptide binding; higher % means a stronger effect; test concentration not given here; strong numbers were not always called active; inhibition, %; hits with a dose series show IC50 in µM; 260,000 compounds, 0.57% hits;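 active = above the screen mean plus three standard deviations and confirmed in dose response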;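 also: Vif residues 1-94 fused to GST binding biotinylated APOBEC3G peptide 110-148; 0% = full assay without inhibitor and 100% = GST in place of GST-Vif; retest series ran down from 100 µM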
Ecoli growth: E. coli growth inhibition | Escherichia coli growth, OD600, 23 h; hits give low values | OD600 absorbance (concentration not given with the values) | 330,000 compounds, 0.21% hits | AID 1053175;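 active = OD600 absorbance below the run mean of sample wells minus 3.6 SD, in any replicate, cut at about 0.56 in these data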;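 also: stock transfer was 300 nL into about 60 µL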
ALR inh: blocks human ALR sulfhydryl oxidase activity; 290,000 compounds, 3.8% hits; purified ALR, DTT oxidation, H2O2 HRP-luminol luminescence; inhibition, % (no concentration beside the values); P55789;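 active = mean and each replicate at 75% or more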;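 also: stock transfer was 7.5 nL into about 7.5 µL; 0% = neutral wells and 100% = wells with inactivated enzyme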
Target sequence (P55789 whole entry, looked up): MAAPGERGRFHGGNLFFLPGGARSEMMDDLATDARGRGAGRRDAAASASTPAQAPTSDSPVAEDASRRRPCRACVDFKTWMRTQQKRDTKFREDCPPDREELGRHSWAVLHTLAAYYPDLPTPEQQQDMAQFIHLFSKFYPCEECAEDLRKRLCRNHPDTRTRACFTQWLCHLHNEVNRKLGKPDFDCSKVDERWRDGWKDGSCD
HNF4A DNA FP: change in binding of human HNF4 alpha to DNA | activity change, % at 10 µM | AID 1224865 | HNF4a-FITC DNA binding, fluorescence polarization, 1 h | P41235 | 360,000 compounds, 0.3% hits; in the data active = activity change above about 30%, passing the limit was not always enough;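 also: controls were the assay level and a saturating level of protein; the project sought stronger binding though the title names inhibitors; some compounds called inactive have numbers as strong as hits; positive values seem to mean higher polarization but the record does not say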
rRNA inh HTS OD600: further read-out of rRNA inh HTS, marked with its call; OD600 change, %; measured here: OD600 growth;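 optical density of the mix in the first replicate; 0 = DMSO median and -100 = no signal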
rRNA inh HTS RFP: recorded beside rRNA inh HTS, whose call it bears; RFP signal change, %; measured here: RFP humanized mutant strains;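 first replicate; 0 = DMSO median and -100 = no signal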
* = called active by the depositor; i = inactive; . = not tested or not shown.

SMILES	MLL AF4-AF9 inh	FGF22 binding	rRNA inh HTS	rRNA inh HTS OD600	rRNA inh HTS RFP	Vif TR-FRET	Ecoli growth	ALR inh	HNF4A DNA FP
O=C(Nc1ccc(F)cc1)N1C[C@H]2[C@@H](c3ccccc31)[C@H](CO)N2C(=O)Cc1ccccn1	-14	i	-1	4	1.2	.	.	.	.
O=[N+]([O-])c1ccc(NCCNCCOc2nonc2-c2ccccc2)c([N+](=O)[O-])c1	3.0	i	-21*	-11*	-6.6*	.	0.68	-2	4.7
CCOC(=O)c1[nH]c2ccc(F)cc2c1NC(=O)C1=COCCO1	.	.	.	.	.	20%	0.74	2	-2.7
O=C(Nc1ccc(Br)cc1)C(c1ccccc1)c1ccccc1	-1.1	i	.	.	.	13%	0.72	-5	4.9
CC(C)CCC(C)NC(=O)c1ccc2nccnc2c1 (stereo not drawn)	2.5	i	-7	-14	-2.7	.	0.73	-6	0.8
CC(C(=O)NC(=O)NC1CCCCC1)N(C)CC(=O)Nc1ccc(F)c(F)c1F (stereo not drawn)	-4.0	i	-8	-22	2.4	-6%	0.66	.	3.9
N#Cc1ccc(CN2CCN(C(=O)CNC(=O)Cc3ccccc3)CC2)cc1	-0.1	i	14	2	-0.8	7%	0.64	.	-2.3
CC(C)(C)c1ccc(C(=O)N2CCN(c3ccc(N4CCOCC4)nn3)CC2)cc1	0.9	i	-4	4	-1.7	-1%	0.68	.	7.1
CCC(=O)Nc1ccc(Oc2ccc3c(c2)C(=O)NC3=O)cc1	4.7	i	7	0	-0.3	-6%	0.68	-5	-1.1
COC(=O)c1ccc(OC(=O)c2cnccn2)cc1	7.7	i	2	6	-1.7	.	0.67	-3	-1.3
O=C(COC(=O)c1c(Cl)ccc(Cl)c1Cl)NC1CCS(=O)(=O)C1 (stereo not drawn)	2.6	i	1	-2	-0.2	.	0.69	.	1.2
CCCCCCOc1ccc(C(=O)O)cc1	-0.8	i	-4	0	-3.2	6%	0.73	-8	0.5
O=C(C[C@@H]1CC[C@@H]2[C@H](COC[C@H](O)CN2Cc2cc(F)cc(F)c2)O1)NC1CCC1	-1.2	i	0	-3	-3.7	.	.	.	.
COc1cccc(CN2CCCC(N3CCc4ccccc4C3)C2)c1O (stereo not drawn)	4.6	i	4	6	0.9	.	0.68	.	-0.4
C[C@H](NC(=O)[C@@H]1Cc2ccccc2CN1)C(=O)NC[C@H]1CC[C@H](C(=O)O)CC1	3.2	i	23	10	1.9	7%	.	-13	-1.8
COc1cc(C)ccc1OCc1cc(C(=O)N(Cc2c(C)nn(C)c2C)C2CC2)no1	-3.2	i	-2	-3	-0.3	.	0.71	-1	8.9
O=C1NC[C@@H](CCCCN2CCN(CCc3ccccc3)C(=O)C2=O)N(CC2CCCCC2)C1=O	0.5	i	8	9	-1.4	.	.	.	2.2
CCOC(=O)N1CCN(C(=O)CSc2nc3c([nH]c4ccccc43)c(=O)n2CC)CC1	-0.4	i	12	17	1.0	.	0.7	-11	-1.2
CC(=O)Nc1cc(-c2cccc(C(=O)N(C)C)c2)cn2c(-c3ccc(C(C)=O)cc3)cnc12	2.3	i	8	9	-3.6	.	.	.	-1.8
COc1ccc(C#Cc2ccc([C@H]3[C@H](CO)N4CCCCN(C(=O)Nc5ccccc5F)C[C@@H]34)cc2)cc1	1.6	i	-26	-16	18	.	.	.	.
CCN(CC(=O)NC(=O)NCc1ccco1)Cc1nc2ccccc2c(=O)[nH]1	.	.	.	.	.	17%	0.66	-5	-3.7
COc1ccccc1C(=O)N/C(=C\c1cn(S(=O)(=O)N(C)C)c2ccccc12)C(=O)N1CCCCC1	-0.1	i	7	13	-1.2	-6%	0.7	-3	1.6
Cc1ccc(S(=O)(=O)c2nc(S(C)(=O)=O)sc2NCc2ccc3c(c2)OCO3)cc1	1.8	i	11	16	3.6	.	0.75	-4	-2.2
CN(CCOc1ccccc1)Cc1nc2cc(Cl)ccc2c(=O)[nH]1	-1.8	i	-5	7	-0.6	.	0.68	.	-0.7
O=C(CC(F)(F)F)N1C[C@H]2[C@@H](c3ccccc31)[C@@H](CO)N2C(=O)C1CC1	-2.7	i	4	16	2.4	.	.	.	.
Going on with the list.
SMILES	MLL AF4-AF9 inh	FGF22 binding	rRNA inh HTS	rRNA inh HTS OD600	rRNA inh HTS RFP	Vif TR-FRET	Ecoli growth	ALR inh	HNF4A DNA FP
CCCCCCNc1cc(C)oc(=O)c1C(C)=O	5.6	i	-12	-19	-2.7	-3%	0.69	.	1.8
CC(C)CNc1ccc2c(c1)OC[C@H](CC(C)C)NS2(=O)=O	2.2	i	-11	-8	5.7	.	.	.	.
O=C(Cn1ncn2c(cc3ccccc32)c1=O)NCCCc1ccccc1	.	.	.	.	.	.	0.71	-2	0.5
CC(C)OCCCNC(=O)c1ccccc1NC(=O)C1=CSCCO1	2.0	i	2	-1	-1.7	.	0.68	-4	-0.6
CN(C)C(=O)c1cccc(-c2ccc([C@@H]3[C@H]4CN(CC5CCOCC5)CCCCN4[C@H]3CO)cc2)c1	3.3	i	2	3	-1.8	.	.	.	.
Cc1c(C(=O)c2ccccc2)c(=O)n(C)c(=O)n1C	-2.2	i	10	1	-9.4	1%	0.71	-3	-0.3
Cc1ccc2nc(SCC(=O)NCc3cccs3)c(C#N)cc2c1	.	.	.	.	.	-32%	0.64	-6	-1.0
O=C(C1CCOCC1)N1CC[C@@H]2[C@@H](CO)Nc3ccc(-c4ccc(F)cc4)cc3[C@@H]21	1.4	i	0	3	4.7	.	.	.	.
CCc1ccc(CN2CCCC(C(=O)Nc3ccccc3-c3ccc(OC)cc3)C2)o1 (stereo not drawn)	8.9	i	-35	-59	-5.7	1%	0.69	-29	0.9
COc1ccccc1-c1nnc(SCC(=O)c2c(N)n(C3CC3)c(=O)[nH]c2=O)n1C	1.2	i	4	12	1.6	1%	0.67	-9	-1.1
COc1ccc(CN2CCNC(=O)C2CC(=O)NC2Cc3ccccc3C2)c(OC)c1 (stereo not drawn)	1.2	i	6	3	2.9	4%	0.66	-3	0.8
CCc1ccc(C(=O)NNC(=O)CN2C(=O)NC3(CCCC3)C2=O)cc1	0.2	i	.	.	.	-8%	0.66	.	-2.5
Cc1nc(N2CCN(C)CC2)c2sc(=S)n(C)c2n1	.	.	.	.	.	-2%	0.73	-12	-2.1
Cc1cc(=O)oc2cc(OCC(=O)NCc3ccncc3)ccc12	-5.6	i	10	15	-7.1	-5%	0.72	-7	3.3
COCC#Cc1ccc2c(c1)O[C@@H](CN(C)C(=O)CN(C)C)[C@@H](C)CN([C@@H](C)CO)S2(=O)=O	-1.0	i	4	7	-1.0	.	.	.	.
CC(=O)N1CCc2cc(S(=O)(=O)NCCC3=CCCCC3)ccc21	.	.	.	.	.	-12%	0.67	-5	-0.1
Cc1ccc(S(=O)(=O)NCC(=O)NCc2cc(=O)n(C)c(=O)n2C)cc1	-0.5	i	3	10	-2.5	.	0.67	-2	5.0
C[C@@H]1CN([C@H](C)CO)C(=O)Cc2cc(NC(=O)Nc3ccc4c(c3)OCO4)ccc2O[C@@H]1CN(C)Cc1ccc(Oc2ccccc2)cc1	3.4	i	-2	1	1.0	.	.	.	.
CN(CCc1cnn(C)c1)Cc1nc(Cc2ccccc2)no1	0.6	i	14	15	0.4	-5%	0.71	-3	-4.0
COc1ccc(C(=O)OCc2ccccc2F)cc1S(=O)(=O)N1CCCC1	-0.5	i	-11	-31	-2.9	-8%	0.7	-1	2.0
O=C(COC(=O)/C=C/c1ccc(C(F)(F)F)cc1)NC1CC1	-0.9	i	1	9	-2.3	2%	0.69	.	2.1
Cc1cc(NCc2ccccn2)n2nc(C)c(-c3ccc(Cl)cc3)c2n1	-1.3	i	11	13	1.1	3%	0.66	-11	5.4
CC(C)(CC(=O)O)CC(=O)N1CCN(c2cc(C(F)(F)F)nc3ccccc23)CC1	.	.	.	.	.	-1%	0.67	-15	0.7
CN(C)/C=N/c1nc2nccc(-c3cccc(Cl)c3)n2n1	-1.7	.	-16	-21	-5.3	5%	.	-3	0.9
C/C=C/c1ccc2c(c1)O[C@@H](CN(C)C(=O)c1ccc3c(c1)OCO3)[C@H](C)CN([C@H](C)CO)S2(=O)=O	-0.2	i	-1	-3	-3.0	.	.	.	.
(continued)
SMILES	MLL AF4-AF9 inh	FGF22 binding	rRNA inh HTS	rRNA inh HTS OD600	rRNA inh HTS RFP	Vif TR-FRET	Ecoli growth	ALR inh	HNF4A DNA FP
Cc1cc(OCC(=O)NCCc2c[nH]c3ccccc23)c2c(C)c(C)c(=O)oc2c1	-0.5	i	-6	-5	-4.1	.	0.75	.	6.4
NC(=S)Nc1cccc2cccnc12	.	.	19	19	-1.7	2%	0.64	-18	0.5
Cc1ccc(C)n1CCN1CCN(C(=O)c2ccco2)CC1	.	.	.	.	.	-3%	0.72	29	2.0
COC(=O)C(NNc1ccccc1)(NC(=O)c1ccccc1F)C(F)(F)F (stereo not drawn)	.	.	.	.	.	2%	0.69	-4	-0.8
NC(=S)NN=Cc1c[nH]c2nccnc12	-7.6	i	-11	-3	3.1	5%	.	.	-0.6
CC1(C(=O)NCc2ccccc2)CN(S(C)(=O)=O)CC(=O)N1Cc1cccc(C(F)(F)F)c1 (stereo not drawn)	-3.3	i	-2	5	-0.9	.	.	.	-0.3
O=Cc1cc2ccccc2nc1SCCCF	0.6	i	9	3	-2.5	5%	0.71	1	1.1
Cc1ccc(Nc2nc(N)nc(CN3CCc4ccccc4C3)n2)cc1	.	.	.	.	.	1%	0.71	.	-0.5
C[C@H](CO)N1C[C@H](C)[C@@H](CN(C)C(=O)Nc2cccc3ccccc23)Oc2ccc(NS(=O)(=O)c3ccc(F)cc3)cc2CC1=O	1.1	i	1	-7	5.2	.	.	.	.
COC(=O)/C=c1\sc2ncnn2c1=O	.	.	.	.	.	13%	.	4	-2.8
Cc1ccc([N+](=O)[O-])cc1S(=O)(=O)Nc1ccc(OCC(=O)N2CCOCC2)cc1	1.3	i	10	15	-1.6	.	0.75	-3	-2.2
CC(C)CSc1n[nH]c(N)n1	-1.5	i	8	7	-1.0	3%	0.72	.	-3.0
CCCC1=C(C(=O)OCC)C(c2ccc(NC(C)=O)cc2)NC(=O)N1 (stereo not drawn)	.	.	.	.	.	-2%	0.68	-8	0.6
CS(=O)(=O)Nc1ccc(C(=O)Nc2ccc(S(=O)(=O)N3CCCCC3)cc2)cc1	-0.4	i	-18	-15	-4.8	-4%	0.73	1	2.5

Some of the entries so far, with two lines to a compound.
Second line of a record – MLL AF4-AF9 inh	FGF22 binding	rRNA inh HTS	rRNA inh HTS OD600	rRNA inh HTS RFP	Vif TR-FRET	Ecoli growth	ALR inh	HNF4A DNA FP
> COc1ccc(CN2CCNC(=O)C2CC(=O)NC2Cc3ccccc3C2)c(OC)c1 (stereo not drawn)
    1.2	i	6	3	2.9	4%	0.66	-3	0.8
> Cc1cc(NCc2ccccn2)n2nc(C)c(-c3ccc(Cl)cc3)c2n1
    -1.3	i	11	13	1.1	3%	0.66	-11	5.4
> CS(=O)(=O)Nc1ccc(C(=O)Nc2ccc(S(=O)(=O)N3CCCCC3)cc2)cc1
    -0.4	i	-18	-15	-4.8	-4%	0.73	1	2.5
> C[C@H](NC(=O)[C@@H]1Cc2ccccc2CN1)C(=O)NC[C@H]1CC[C@H](C(=O)O)CC1
    3.2	i	23	10	1.9	7%	.	-13	-1.8

Molecules from the list above containing a nitro group on carbon:
SMILES	MLL AF4-AF9 inh	FGF22 binding	rRNA inh HTS	rRNA inh HTS OD600	rRNA inh HTS RFP	Vif TR-FRET	Ecoli growth	ALR inh	HNF4A DNA FP
O=[N+]([O-])c1ccc(NCCNCCOc2nonc2-c2ccccc2)c([N+](=O)[O-])c1	3.0	i	-21*	-11*	-6.6*	.	0.68	-2	4.7
Cc1ccc([N+](=O)[O-])cc1S(=O)(=O)Nc1ccc(OCC(=O)N2CCOCC2)cc1	1.3	i	10	15	-1.6	.	0.75	-3	-2.2

Screening data (PubChem BioAssay)

An excerpt. The share of hits here may be higher or lower than overall.
